# Biofilm kill mix = mixture kills Candida albicans biofilm cells | C. albicans biofilm persisters + clotrimazole, fluorescence viability; primary screen in compound mixtures of four per well | inhibition, % at 7.6 µM | 120,000 compounds, 0.02% hits;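 active means inhibition above 30.3% in the primary screen of four-compound pools, then above 30% when the compound was retested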;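 further: compounds exposed to preformed 24 h biofilms for 48 h; the number belongs to the whole pool; some results filed as inactive read as strong as hits; inactives centre near 12; 0% = biofilm with clotrimazole alone and 100% = kill control; retested singly at about 60 µM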
#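 System: C. albicans CAF4-2 wild-type biofilms; Medium: RPMI/MOPS medium, pH 7.0; Reagent: Clotrimazole, 50 µg/mL; Times: biofilm formation 24 h, compound exposure 48 h, 37 °C; Detection: 2-h Alamar Blue fluorescence, 535/590 nm excitation/emission; Evaluation: percent inhibition of biofilm viability.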
# * hit, by the source's call; & = joins results of further samples.
mol	Biofilm kill mix
O=C(CNCc1ccco1)Nc1cc(S(=O)(=O)N2CCOCC2)ccc1N1CCCC1	14
C/C(=N\OCC(=O)Nc1ccccc1Br)c1cccs1	11
CS(=O)(=O)c1ccc(C(=O)Nc2ccccc2Cl)cc1	7
N/C(=N\N=C\c1ccc(O)c(O)c1)c1nonc1N	13
CC(NC(=O)C(C)(C)C)C(c1cccs1)N1CCOCC1 (stereo unspecified)	21
CC(=O)Nc1cccc(NC(=O)c2cc(Cl)ccc2Cl)c1	16
COc1ccccc1NC(=O)CCCc1nc(-c2ccc(OC)c(OC)c2)no1	6
CCOC(=O)N1CCC(NC(=O)C2=CCN(S(=O)(=O)c3ccc(F)cc3)CC2)CC1	30
COc1cc2[nH]cc(C(=O)NCCc3ccccc3)c(=O)c2cc1OC	12
CCOC(=O)c1ccccc1NC(=O)CSc1ccc(-c2cccnc2)nn1	14
CC(OC(=O)C1=COCCO1)C(=O)Nc1cc(S(=O)(=O)N2CCCCC2)ccc1Cl (stereo unspecified)	-4
COc1ccc([N+](=O)[O-])cc1NC(=O)c1ccc(N(Cc2ccccc2C)S(C)(=O)=O)cc1	12
Cc1ccccc1NC(=O)NCCc1c[nH]c2ccccc12	4
COc1ccc(-c2csc(/C(C#N)=C\c3ccc(O)c([N+](=O)[O-])c3)n2)cc1OC	5
COc1ccc(C(=O)O)cc1NC(=S)NC(=O)c1ccc(-c2ccc(Cl)cc2)o1	17
O=C1c2ccccc2-c2nc3ccccc3n21	20&5
C/C(CC(=O)NCc1ccc(F)cc1)=N\NC(N)=S	7
COc1ccccc1N(CCN1C(=O)c2cccc3cccc(c23)C1=O)C(=O)c1ccncc1	18
Cc1nnc(SCc2cccc([N+](=O)[O-])c2)s1	19
Cc1ccccc1OCCC(=O)OCC(=O)Nc1ccc(C(N)=O)cc1	-6
Cc1cnc(NC(=O)c2sc(Nc3ccccc3)nc2N)o1	8
O=C(O)c1ccccc1C(=O)Nc1ccc(Br)c2cccnc12	11
CC(=O)NCC(=O)N(C)C(C(=O)Nc1ccc2c(c1)OCCO2)c1ccc(C)cc1 (stereo unspecified)	18
O=C(C(=O)N1CCOCC1)c1cn(CCOc2ccccc2)c2ccccc12	-1
C=CCN(c1ccccc1C(=O)O)S(=O)(=O)/C=C/c1ccccc1	8
O=C(CSCc1c(Cl)cccc1Cl)N1CCOCC1	0
CCO[C@@H]1OC(C(=O)NCc2nc3ccccc3[nH]2)=C[C@H](C)[C@H]1CCCO	19
CC(=O)N1N=C(c2cccs2)CC1c1cccc([N+](=O)[O-])c1 (stereo unspecified)	18
COc1ccccc1-c1c(C)oc2cc(OCC(=O)OCc3ccccc3)ccc2c1=O	14
CC(NC(=O)/C(=C/c1ccc2c(c1)OCO2)NC(=O)c1cccc([N+](=O)[O-])c1)C(=O)O (stereo unspecified)	3
COc1ccc(NC(=S)NC(=O)/C=C/c2cccs2)cc1	8
COc1ccc(-c2[nH]ncc2N=Nc2cc(C)cc(C)c2)cc1	19
COc1ccc(-c2nnn(CC(=O)NCc3ccc4c(c3)OCO4)n2)cc1OC	7
O=C1NC(=Nc2cccnc2)S/C1=C\c1cccc(F)c1	13
CC(NC(=O)c1ccco1)C(c1cccs1)N1CCN(c2ccccc2F)CC1 (stereo unspecified)	14
CCOc1ccc(NC(=O)Cc2ccccc2)cc1	-4
CCn1cc(CNc2nc3nonc3nc2N2CCCCC2)cn1	5
Cc1c([N+](=O)[O-])ccc(S(=O)(=O)N2CCC(C(N)=O)CC2)c1C	13
CCOC(=O)c1cc(-c2ccccc2)n(CC(=O)Nc2cccc(OC)c2)c1C	15
COC(=O)CC1=NN(c2ccccc2)C(=O)/C1=C\c1ccc(OC)cc1	6
CCCCOc1ccc(C(O)C(CN2CCOCC2)c2ccccc2)cc1 (stereo unspecified)	27
Cc1ccccc1NC(=S)NCC1CCN(C(C)c2ccccc2)C1 (stereo unspecified)	8
CN(C)c1ccc(NC(=O)C(=O)NCCOc2ccccc2)cc1	14
CCOC(=O)c1ccccc1NC(=O)CSc1nc(N)cc(N)n1	22
COc1cc(OC)c(S(=O)(=O)NC(C)C)cc1S(=O)(=O)NC(C)C	14
Cc1ccc(OCC(=O)Nc2cc(S(=O)(=O)N3CCOCC3)ccc2Cl)c([N+](=O)[O-])n1	18
O=C1CCCc2[nH]c(-c3ccccc3)nc21	18
O=c1c2ccccc2nc(-c2ccco2)n1/N=C/c1ccccc1O	4
CCn1c(COc2ccc(Cl)cc2)nnc1SC1CCc2ccccc2C1=O (stereo unspecified)	4
O=C(NNC(=O)C1CCN(S(=O)(=O)c2ccc(Cl)cc2)CC1)c1ccncc1	22
O=C(NC1CCN(Cc2ccccc2)CC1)c1ccc2c(c1)OCCCO2	5
O=C(CSc1ncnc2ccccc12)Nc1ccc2c(c1)OCCO2	20
O=C(CSc1ccccn1)Nc1ccc(Cl)cn1	13
CN(C)C(=O)c1cn(-c2ccccc2)nc1-c1cc2ccccc2oc1=O	0
CCc1ccc(NC(=O)Cn2c3[n+](c4c(F)c(F)ccc42)CCCCC3)cc1	16
CC1CCCCC1NC(=S)NC(=O)c1sc2ccccc2c1Cl (stereo unspecified)	-5
Cn1[nH]c(CSc2ccc(Cl)cc2)cc1=O	5
Cc1ccnc(NS(=O)(=O)c2ccc(N3C(=O)Nc4ccccc4N3O)cc2)c1	13
Cc1c(-c2ccn[nH]2)cc(NC(=O)c2ccc(Cl)cc2)c(=O)n1N	6
CN1CCN(/N=C/c2ccc(-c3ccc([N+](=O)[O-])cc3Cl)o2)CC1	17

# More compounds.
mol	Biofilm kill mix
CC(=O)N1N=C2/C(=C/c3ccccc3)CCCC2C1c1ccccc1 (stereo unspecified)	-9
FC(F)Oc1ccc(-c2c[n+]3c(n2-c2ccccc2)CCCCC3)cc1	14
O=C(NCCN1CCOCC1)c1ccc(CSc2nc3ccncc3n2Cc2ccc(F)cc2)cc1	11
N=C1c2ccccc2CN1NC(=O)CC12CC3CC(CC(C3)C1)C2	6
Cc1cc(-c2cccc(Br)c2)c(C#N)c(N)n1	15
CCN(CC)C(=O)C(C)OC(=O)COc1ccc(Cl)cc1Cl (stereo unspecified)	4
CCOc1ccc(S(=O)(=O)N2CCN(C(=S)NCc3ccco3)CC2)cc1	13
COc1ccc(NC(=O)N2CCN(c3ccc([N+](=O)[O-])cc3)CC2)cc1OC	-3
C=COC(=O)c1sc2nc(C)cc(C)c2c1N	14
COc1ccc(NC(=S)N(CCc2ccc(OC)c(OC)c2)Cc2ccccn2)cc1	7
COc1cc(/C=C/C(=O)c2ccc(C)cc2)ccc1OCC#N	11
CCOc1ccc(NC(=S)Nc2cc(C)[nH]n2)cc1	12
COc1ccc2nc(N=NC3=C(O)CC(C)(C)CC3=O)sc2c1	3
COc1ccccc1NC(=O)c1ccc2c(c1)nnn2C	13
NC(=O)c1ccc(NCCc2ccccc2)c([N+](=O)[O-])c1	9
CN(C)c1cccc(C(=O)OC(C(=O)Nc2ccc(Cl)cc2C(F)(F)F)c2ccccc2)c1 (stereo unspecified)	7
CCN1CCN(C(=O)Nc2cc(Cl)ccc2OC)CC1	16
C/C(=N\NC1=N[C@H]2CS(=O)(=O)C[C@H]2S1)c1ccccc1	23
CSc1sc(-c2nnc(SCC(=O)Nc3ccc(Cl)cc3)n2C)c2c1C=CCC2	19
O=C(CSc1ccc(Cl)cc1)Nc1ncccn1	16
Cc1ccc(OCCCSc2n[nH]c(N)n2)cc1	-10
O=C(Cc1ccccc1)NNC(=O)c1ccc(NC(=O)c2ccccc2)cc1	9
CC(=O)c1cccc(NC(=O)COC(=O)c2cccc(N3C(=O)c4ccccc4C3=O)c2)c1	21
COC(=O)c1ccc(COC(=O)c2ccc(SC)cc2OC)cc1	5
O=C(N/N=C/c1c[nH]c2ccc(Br)cc12)C1CC1	14
O=[N+]([O-])c1ccc(N2CCSCC2)cc1O	12
COc1ccc(OC)c(/C=N/NC(=O)CNC(=O)c2ccc(S(=O)(=O)N3CCOCC3)cc2)c1	11
Cc1nn(Cc2ccccc2Cl)c(C)c1NC(=O)c1ccn(C)n1	6
CS(=O)(=O)N(CC(=O)NCCSc1ccccn1)c1ccc(F)cc1	16
CC(C)(C)c1ccc(C(=O)N2CCC(=O)N(C(COCc3ccccc3)Cc3ccccc3)CC2)cc1 (stereo unspecified)	2
CCOc1ccc2nc(N=NC3=C(O)CC(C)(C)CC3=O)sc2c1	18
CN(C)c1ccc(CN2CCC(C(N)=O)CC2)cc1	10
O=C(O)COCC(=O)Nc1ccc(-n2cnnn2)cc1	11
CN=C(C)/C(C(=O)OC)=C(/O)c1c(F)cccc1F	17
O=C(O)c1ccccc1C(=O)c1ccc(N2CCOCC2)c([N+](=O)[O-])c1	9
COc1ccc2cc3c(N)nn(C(=O)c4cccc(F)c4)c3nc2c1	5
COc1cc(N=Nc2ccccc2C(=O)O)ccc1O	17
COc1ccc(C(CC(=O)N2CCCC2)c2c(OC)cc(OC)c3ccc(=O)oc23)cc1 (stereo unspecified)	15
Cc1[nH]n(-c2ccc(Cl)cc2)c(=O)c1C(=O)c1ccccc1	22
COc1cccc(C(=O)C2CCCN(C(=O)CCc3scnc3C)C2)c1 (stereo unspecified)	4

# Shown field by field: 2 of the compounds above.
O=C(N/N=C/c1c[nH]c2ccc(Br)cc12)C1CC1
  Biofilm kill mix: 14

O=[N+]([O-])c1ccc(N2CCSCC2)cc1O
  Biofilm kill mix: 12

# Sorted by length of the SMILES (lowest first): some entries from above
mol	Biofilm kill mix
COc1cc(N=Nc2ccccc2C(=O)O)ccc1O	17
COC(=O)c1ccc(COC(=O)c2ccc(SC)cc2OC)cc1	5
COc1ccc2cc3c(N)nn(C(=O)c4cccc(F)c4)c3nc2c1	5
Cc1[nH]n(-c2ccc(Cl)cc2)c(=O)c1C(=O)c1ccccc1	22

# The list goes on.
mol	Biofilm kill mix
Clc1ccc2nc(C3CCN(Cc4nnnn4C4CCCCC4)CC3)[nH]c2c1	9
CCOC(=O)N1CCN(C(=O)C2CCN(Cc3ccc(OC)cc3OC)CC2)CC1	10
CCCNS(=O)(=O)c1ccc(CCC(=O)N2CCN(c3ccc(F)cc3)CC2)cc1	16
COCCCNC(=O)c1nc2c(nnn2Cc2cc(C)ccc2C)c(=O)[nH]1	16
CCOC(=O)N1CCC2(CC1)NCCc1c2[nH]c2ccccc12	27
COc1cc(OC)c(NC(C)C(=O)N2CCCC2)cc1Cl (stereo unspecified)	7
Cc1cc(C)cc(NC(=O)Nc2ccc3ccccc3n2)c1	25
O=C(Nc1ccccc1)N1CCC(C(=O)N2CCN(c3ccccc3F)CC2)CC1	9
CC/C(=N\NC(=O)c1ccoc1C)c1ccc(C)o1	10
CSc1ccccc1C(=O)NCc1ccc(F)cc1	-17
C#Cc1ccc([C@@H]2C=C(C(=O)N3CCOCC3)O[C@H](OCCCCO)C2)cc1	10
N#CC1=C(SCc2ccccc2)NC(=O)CC1c1ccccc1 (stereo unspecified)	6
O=C(N/N=C/c1ccc([N+](=O)[O-])s1)C(O)c1ccccc1 (stereo unspecified)	3
CCOc1ccccc1OCCC(=O)Nc1ccc(F)c(Cl)c1	2
CCC/C(=N\NC(=O)c1ccccc1C)c1ccccc1	0
Cn1cc(C(=O)N/N=C/C2=C(N3CCOCC3)C(=C\c3ccccc3)/CC2)ccc1=O	13
CCn1c(COc2cccc(C)c2C)nnc1SCC(=O)Nc1cc(C)on1	8
CCN(CC)c1ccc(S(=O)(=O)N(CC)CC)cc1NC(=O)C1CCCC1	2
CCN(CC)c1ccc(/C=N/Nc2nn[nH]n2)cc1	30
Cc1ccc(-c2nc(C(F)(F)F)cc(=O)[nH]2)cc1	9
Cc1nc2cc(N)ccc2n1-c1ccccc1	14
Cc1cc(=O)[nH]c(N/N=C/c2c(C)nn(-c3ccc(F)cc3)c2Cl)n1	6
CC(=O)NCCCNc1ccc([N+](=O)[O-])cc1	16
COc1ccc(C(=O)O/N=C2\CCCc3nonc32)cc1	12
O=C(c1ccc2c3c(cccc13)CC2)C1CCCN(Cc2ccccn2)C1 (stereo unspecified)	4
CCOc1ccc(N2C(=O)CC(NNc3nc4ccccc4s3)C2=O)cc1 (stereo unspecified)	16
CCOC(=O)c1sc(=NC(=O)COc2ccccc2)n(C)c1C	19
O=C(NCCCl)C1Cc2c(ccc3ccccc23)O1 (stereo unspecified)	14
Cc1nc(N2CCOCC2)nc(N2CCCCC2C)c1[N+](=O)[O-] (stereo unspecified)	9
COC(=O)NC1CCC(NC(=O)OC)CC1 (stereo unspecified)	11
CC(=O)/C(=N\Nc1ccc(Cl)cc1Cl)Sc1cccc2cccnc12	4
CC(C)N1CCN(Cc2cccc3nonc23)CC1CCO (stereo unspecified)	22
CCc1nnc(NS(=O)(=O)c2ccc(NC(=S)Nc3ccc(F)cc3)cc2)s1	18
CSCC(=O)N1CCCC(CNC(=O)c2ccc(-c3ccccc3)cc2)C1 (stereo unspecified)	4
CCOC(=O)/C=C1\Nc2ccccc2OC1=O	23
CN(CC(=O)NCCc1ccc(F)cc1)Cc1cccs1	3
FC(F)(F)c1ccc(/C=N/N2CCN(Cc3ccccc3)CC2)cc1	18
O=C1CC(NCC2CCCO2)C(=O)N1c1ccc(F)cc1 (stereo unspecified)	8
O=S(=O)(c1ccccc1)c1nc(NC2CC2)sc1Cl	7

# Bioassay records deposited in PubChem BioAssay by PCMD.

# The list is partial, so the mix of outcomes need not match the whole.
